Compound activity as filed in PubChem.
miR-21 reporter = qHTS Assay for Modulators of miRNAs and/orActivators of miR-21; AID 2288, 2010; HeLa miR-21 FLuc reporter, luciferase, 48 h; Potency, µM (top dose mostly 38.3 µM), without a hit: at the top dose reporter change, positive = more light; 340,000 tested, under 10 active; active = well fitted rising curve with a large enough effect; inconclusive = small, poorly fitted or top-dose-only effect; inactive = no such curve, though single readings can be large or run the other way;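 note: % of control where 0% means no effect; miR-21 action dims this reporter so a rising signal means less miR-21 action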
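Luminescence from a firefly luciferase reporter carrying a miR-21 binding site downstream, stably expressed under a CMV promoter in HeLa cells that make miR-21 endogenously, reports miRNA modulation after 48 h compound exposure up to approximately 40uM final.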
GLA inh pH 4.5 = qHTS Assay for Inhibitors of Human alpha-Galactosidase at pH 4.5 | purified enzyme, 4-MU-alpha-Gal fluorescence, pH 4.5 | AID 1467, 2008 | Alpha-galactosidase A (Homo sapiens), P06280 | activity change, negative = inhibition, % at 105 µM | 230,000 tested, under 10 active; inconclusive = small, poorly fitted or top-dose-only inhibition, or a rising curve; inactive = flat fitted curve, though single readings scatter; no compound was filed as active;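 note: 0% = full activity with enzyme and -100% = basal without enzyme; dose as in the result columns while the protocol names 77 µM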
Rango release inh = qHTS Assay for Inhibitors of RanGTP induced Rango (Ran-regulated importin-beta cargo) - Importin beta complex dissociation; Biochemical FRET Rango-importin beta, RanGTP-induced dissociation; AID 540253, 2011; actives 0.071% (n = 340,000); Potency, µM (highest dose often 46.1 µM), inactives show at the highest dose activity change, negative = inhibition; Snurportin-1 (Homo sapiens) + GTP-binding nuclear protein Ran (Homo sapiens) + Importin …; active means falling FRET ratio curve, often poorly fitted, with flat reads before Ran was added; inconclusive means other falling curves, or compound fluorescence or quenching; inactive means flat or rising ratio curve;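 note: potency is the fitted concentration of half-maximal effect; % of control where 0% means no effect; nearly all actives have a fitted effect of over 45% in size; -100% = wells without RanGTP and RCC1; the record marks most hits as doubtful in a second field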
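Compounds preincubate 5 min with complex of recombinant Rango and importin beta in PBS with 1 mM DTT. Ran (0.6 uM) loaded with 2 mM GTP plus 0.2 uM RCC1 starts dissociation; FRET is recorded 45 min later.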
Rango complex inh = qHTS Assay for Inhibitors of Rango (Ran-regulated importin-beta cargo) - Importin beta complex formation | actives 0.031% (n = 340,000) | Rango CFP/YFP FRET sensor + importin beta, 45 min | Potency, µM (doses to about 92.2 µM), for inactives: at the top dose inhibition of complex formation; active = rising FRET ratio curve, often small or poorly fitted; inconclusive = mostly compound fluorescence or quenching in the first reads; inactive = flat curves in all reads;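 note: potency is the fitted concentration of half-maximal effect; 0% = DMSO wells and 100% = buffer wells lacking importin beta; nearly all actives have a fitted effect of over 15% in size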
Target sequence (Q14974 whole entry, looked up): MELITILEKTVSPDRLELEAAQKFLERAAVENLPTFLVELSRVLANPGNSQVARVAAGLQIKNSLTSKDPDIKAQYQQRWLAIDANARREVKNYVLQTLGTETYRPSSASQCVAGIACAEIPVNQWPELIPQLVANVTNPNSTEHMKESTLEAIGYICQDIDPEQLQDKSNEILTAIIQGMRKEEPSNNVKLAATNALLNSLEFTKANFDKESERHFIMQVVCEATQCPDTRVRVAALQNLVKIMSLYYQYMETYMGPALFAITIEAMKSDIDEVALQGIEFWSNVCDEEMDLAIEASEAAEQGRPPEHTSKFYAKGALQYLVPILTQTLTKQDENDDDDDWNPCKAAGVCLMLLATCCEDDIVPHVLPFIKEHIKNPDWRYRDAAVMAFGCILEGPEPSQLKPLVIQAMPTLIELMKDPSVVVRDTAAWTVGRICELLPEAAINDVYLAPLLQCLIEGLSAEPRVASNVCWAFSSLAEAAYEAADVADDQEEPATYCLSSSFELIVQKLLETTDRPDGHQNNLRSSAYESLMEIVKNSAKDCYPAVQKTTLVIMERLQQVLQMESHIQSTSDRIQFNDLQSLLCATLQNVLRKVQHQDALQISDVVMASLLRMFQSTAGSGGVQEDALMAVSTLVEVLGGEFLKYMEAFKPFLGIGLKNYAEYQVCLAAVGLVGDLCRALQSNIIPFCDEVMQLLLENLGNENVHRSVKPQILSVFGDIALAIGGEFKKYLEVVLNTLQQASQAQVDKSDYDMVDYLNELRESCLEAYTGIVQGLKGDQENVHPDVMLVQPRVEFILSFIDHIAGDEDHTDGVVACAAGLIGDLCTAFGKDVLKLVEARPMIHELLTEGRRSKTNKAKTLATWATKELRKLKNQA
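Inhibition scored from the CFP 486 nm/YFP 530 nm FRET ratio 45 min after adding 0.125 microM importin beta to 50 nM Rango biosensor preincubated 5 min with compound (room temperature, PBS with DTT, Tween-20, BSA). No-importin wells as positive control.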
* marks the source's active call; other numbers are inactive results; ? = inconclusive; / = not tested or not shown; [ ] = remark or other dose.

SMILES | miR-21 reporter | GLA inh pH 4.5 | Rango release inh | Rango complex inh
CCOc1ccc(/C(C)=N\NC(=O)Cc2ccccc2)cc1 | -13% | / | -7% | 4.3%
COc1cccc(Nc2c(F)c(F)c(F)c(F)c2C(=O)O)c1 | -1% | 3 | -8% | 0.5%
CCn1nc(C)c(NS(=O)(=O)c2ccc(C)cc2)c1C | 2% | -5 | 17% | 1.3%
Cn1c(=O)n(C)c2cc([N+](=O)[O-])c(N3CCN(C(=O)c4cccc(Cl)c4)CC3)cc21 | 0% | 3 | 3% | -0.5%
CC(=O)Nc1ccc(NC(=O)c2ccc(COc3ccccc3)cc2)cc1 | 9% | / | 7% | 1.4%
O=S(=O)(NCC1CCCN(Cc2ccccc2O)C1)c1cccc2cccnc12 (centres undefined) | 2% | / | 9% | 1.4%
O=S(=O)(/N=C(\Sc1ccc(Cl)cc1)c1ccccc1)c1ccccc1 | 6% | -20 | 3% | 0.9%
CCCCCCCCCCCCN1[C@@H](CC(=O)OC)c2cc(F)ccc2S1(=O)=O | / | / | -9% | -1.0%
CC1CCc2ccccc2N1C(=O)c1cccs1 (centres undefined) | -2% | 1 | 11% | 0.3%
CNC(=O)Cn1ncc2c3ccccc3n(C)c2c1=O | -1% | / | 1% | -0.7%
CCN(CC)c1ccc(/C=N/NC(=O)c2cnccn2)cc1 | -14% | 5 | -8% | ?
O=C(NC1CCCCC1)C(c1ccc2ncccc2c1)N(Cc1ccc2c(c1)OCO2)C(=O)c1ccc2c(c1)OCCO2 (centres undefined) | -7% | -8 | -4% | -2.8%
CCOC(=O)c1cc(-c2ccccc2)nn1CC1CC(c2ccc(Cl)cc2)=NO1 (centres undefined) | / | / | -5% | -1.0%
COC(=O)c1cc(OC)c(OC)cc1NC(=O)c1cccnc1 | -3% | -2 | / | /
CSc1ccccc1C(=O)NCC1CCCO1 (centres undefined) | 0% | -1 | 3% | 2.2%
Cc1cccc(Cn2cc3c(=O)n(Cc4cccc(F)c4)nc-3c3ccccc32)c1 | -5% | / | -9% | -0.4%
O=C(Cc1ccc(Cl)cc1)N/N=C/c1ccncc1 | -2% | 5 | 7% | 1.3%
O=C(Cc1c(F)cccc1Cl)NNC(=S)Nc1ccc(S(=O)(=O)Nc2ncccn2)cc1 | 2% | / | 27% | 0.6%
COc1cc(/C=N/O)cc(Br)c1OC | 0% | -7 | 2% | -2.2%
Cc1ccc(S(=O)(=O)N(C)/N=C/c2ccc(C(=O)O)cc2)cc1 | 0% | -2 | -2% | 1.0%
Cc1cc[n+](CC(=O)c2ccccc2)c2ccccc12 | 6% | 1 | 2% | 0.1%
Cc1cc(/C=C2\NC(=O)NC2=O)c(C)n1-c1cccnc1 | -22% | -4 | -7% | -1.2%
C=CCOc1ccccc1CNc1cccc(F)c1 | -14% | -1 | -7% | -1.4%
CCn1c(=N)n(CC(=O)c2ccc(Br)s2)c2ccccc21 | -34% | 1 | -7% | 1.4%
COc1ccc(NC(=O)CCn2c(=S)[nH]c3ccccc3c2=O)cc1 | -4% | / | -1% | 0.8%
Fc1ccc(NC(=S)Nc2cccnc2)cc1Cl | 11% | -2 | 0% | -1.2%
CCOC(=O)N1CCC(NC(=O)Cn2nc(Cc3ccncc3)c3ccccc3c2=O)CC1 | -2% | 1 | -5% | 2.0%
CCCN(CCC)C(=O)c1cn(C)c2ccc(S(=O)(=O)N3CCCC3)cc2c1=O | 1% | / | 10% | -1.0%
O=C(CC1C(=O)NCCN1Cc1cccc(F)c1F)NCCCC1CCCC1 (centres undefined) | -8% | / | -24% | -4.2%
O=c1sc(N2CCN(c3ccccc3F)CC2)nc2ccsc12 | -57% | 2 | -4% | -0.3%
CCc1ccccc1NC(=O)CNC(=O)c1cc(C2CC2)nc2c1cnn2C(C)C | / | / | 21% | 0.4%
Cc1ccc(S(=O)(=O)N2CCOCC2)cc1C(=O)NCCCn1ccnc1 | 3% | -2 | -8% | ?
COc1ccc(N(C(=O)c2ccco2)C(C(=O)NC2CCCC2)c2cccs2)c(OC)c1 (centres undefined) | -8% | / | 12% | -6.0%
O=C(Nc1c(S(=O)(=O)c2ccc(Cl)cc2)csc1Br)c1ccccc1Cl | 1% | -4 | 7% | 9.2%
COc1ccc(/C=C2\SC(=S)N(CCCC(=O)Nc3ccc(O)cc3)C2=O)cc1 | ? | -8 | 33% | 0.5%
CSc1oc(-c2ccccc2)nc1S(=O)(=O)c1ccc(C)cc1 | -8% | -2 | 5% | -3.1%
O=C(/C=C/c1ccc([N+](=O)[O-])cc1)NC1CC2CCC1C2 (centres undefined) | -37% | -15 | -14% | ?
O=C(NCCc1ccccc1)NC(Cc1ccccc1)C(=O)O (centres undefined) | 0% | / | 5% | -1.7%
Cn1c(SCc2ccccc2)nnc1C1CCCNC1 (centres undefined) | -4% | 0 | -6% | -2.3%
COc1ccc(C2SCC(=O)N2c2nnc(C34CC5CC(CC(C5)C3)C4)s2)cc1 (centres undefined) | -4% | -4 | -2% | -2.9%
CC(=O)c1cccc(Nc2nc(-c3sc(N)nc3C)cs2)c1 | -21% | / | 1% | -0.2%
COc1ccc(C2SCCN2S(=O)(=O)c2ccc(NC(C)=O)cc2)cc1OC (centres undefined) | -7% | / | -4% | -2.8%
Cc1[nH]c2ccccc2c1/C=N\NC(=O)Cn1nnc(-c2ccccc2)n1 | -8% | 3 | 0% | 0.6%
Cc1ccc(C(=O)NNC2=Nc3cc([N+](=O)[O-])ccc3OC2)cc1 | -29% | -2 | 1% | -0.6%
Cc1onc(-c2ccccc2Cl)c1C(=O)NC(C)c1ccccc1 (centres undefined) | 2% | / | 27% | 2.2%
CCCCn1nnc(NC(=O)COc2cc(C)ccc2C(C)C)n1 | -6% | -2 | 13% | -2.5%
Oc1ccc(F)c2cccnc12 | 0% | 4 | 7% | 0.6%
COc1ccc(CCN2CC(C(=O)NCCc3ccccc3C)CCC2=O)cc1 (centres undefined) | 4% | / | 0% | -1.7%
Cc1ccccc1-c1nc(CS(=O)(=O)CC(=O)NC2CC2)c(C)o1 | -5% | / | 0% | 1.3%
COc1ccc2c(c1)CC=C1C2CCC2(C)C(=O)C(=NO)CC12 (centres undefined) | / | / | -14% | -2.5%
COc1c2ccccc2c(OC)c2ccccc12 | -1% | -9 | ? | ?
COc1cc(NCCCn2cnc(C(=O)Nc3ccc(C)c(C)c3)n2)cc(OC)c1OC | / | / | 16% | 1.7%
O=S(=O)(Cc1c(F)cccc1Cl)c1ncn[nH]1 | 0% | 0 | 6% | 4.7%
CC(C)COC(=O)Nc1ccccc1C(=O)N1CCOCC1 | -2% | -10 | 3% | -0.2%
C[C@H](NC(=O)C1CCC(CNC(=O)[C@@H]2CCCN2C(=O)OC(C)(C)C)CC1)C(=O)O (some centres undefined) | -3% | / | -6% | 0.1%
C/C(=C\c1cccs1)C(=O)c1c(C)cc(C)[nH]c1=O | -4% | -6 | 36% | 2.0%
O=C(O)C(Cc1ccccc1)NC(=O)C(Cc1ccccc1)NC(=O)C12CC3CC(CC(C3)C1)C2 (centres undefined) | / | / | 9% | -2.4%
CC1CCC2(CC1)NC(=O)N(NC(=O)c1cccc(N(C)C)c1)C2=O (centres undefined) | / | / | 7% | -0.2%
O=C(COC(=O)/C=C/c1ccccc1)NC1CC1 | / | / | 5% | 1.9%
COc1ccccc1-n1c(SCC(=O)c2ccc(O)cc2O)nc2cc([N+](=O)[O-])ccc21 | -9% | 1 | -2% | 3.7%

Ordered by length of the SMILES (highest first): 7 of the compounds above.
SMILES | miR-21 reporter | GLA inh pH 4.5 | Rango release inh | Rango complex inh
O=C(O)C(Cc1ccccc1)NC(=O)C(Cc1ccccc1)NC(=O)C12CC3CC(CC(C3)C1)C2 (centres undefined) | / | / | 9% | -2.4%
Cc1ccc(C(=O)NNC2=Nc3cc([N+](=O)[O-])ccc3OC2)cc1 | -29% | -2 | 1% | -0.6%
Cc1ccccc1-c1nc(CS(=O)(=O)CC(=O)NC2CC2)c(C)o1 | -5% | / | 0% | 1.3%
C/C(=C\c1cccs1)C(=O)c1c(C)cc(C)[nH]c1=O | -4% | -6 | 36% | 2.0%
O=S(=O)(Cc1c(F)cccc1Cl)c1ncn[nH]1 | 0% | 0 | 6% | 4.7%
COc1c2ccccc2c(OC)c2ccccc12 | -1% | -9 | ? | ?
Oc1ccc(F)c2cccnc12 | 0% | 4 | 7% | 0.6%

Additional records.
SMILES | miR-21 reporter | GLA inh pH 4.5 | Rango release inh | Rango complex inh
O=C(Cn1ncc2c3ccccc3n(Cc3ccc(F)cc3)c2c1=O)N1CCN(c2ncccn2)CC1 | 18% | 1 | 0% | ?
CCOC(=O)C1CCN(C(=O)CN(Cc2ccc(Cl)cc2)S(C)(=O)=O)CC1 | 5% | 3 | -5% | 0.4%
O=C(O)[C@H]1Cc2ccccc2CN1S(=O)(=O)c1ccc(F)cc1 | -2% | 3 | 7% | 3.0%
C=CCn1c(SCC(=O)NCC2CCCO2)nnc1-c1ccncc1 (centres undefined) | / | / | -8% | -4.1%
OCC1(Cc2ccc(Cl)cc2)CCN(CCCc2ccccc2)CC1 | -8% | -1 | -2% | 0.2%
CCOC(=O)C1CCCN(C(=O)c2ccc(CS(=O)(=O)Cc3ccccc3C)o2)C1 (centres undefined) | -2% | 1 | -15% | -1.2%
Cc1ccc(S(=O)(=O)Nc2cc(Cl)c(O)c3ncccc23)cc1 | 20% | / | 8% | -2.0%
CCOC(=O)NC1(C(F)(F)F)C(=O)NC(C)=C1C(=O)OC (centres undefined) | -4% | 6 | 3% | 3.3%
O=C(CN1CCN(Cc2ccc(F)cc2)CC1)Nc1nc2ccccc2s1 | 12% | / | -9% | -0.6%
COc1ccccc1OCC(=O)Nc1ccc(S(=O)(=O)NC(C)=O)cc1 | -2% | 3 | 5% | -0.9%
COc1cc(C(=O)Nc2ccc(S(=O)(=O)Nc3ncccn3)cc2)c([N+](=O)[O-])cc1OC | -2% | -5 | ? | 1.5%
CCOC(=O)c1c(C)[nH]c(C)c1C(=O)COC(=O)/C=C/c1cccc(F)c1 | 1% | -10 | 4% | 3.8%
Cc1cc(C)cc(C(=O)NC(CC(N)=O)c2ccc(NC3CCCCCC3)c([N+](=O)[O-])c2)c1 (centres undefined) | -4% | 6 | -13% | 2.1%
FC(F)(F)c1cnc(N2CCSCC2)c(Cl)c1 | -2% | 0 | -14% | 0.5%
COc1ccccc1CNC(=O)CSc1nnc2c(Cl)cc(C(F)(F)F)cn12 | -2% | 4 | 28% | -2.5%
Cc1nn(CCC#N)c(C)c1Oc1ccccc1O | 0% | 6 | -16% | -0.5%
CCc1ccc(OCc2nnc(SCC(=O)NCC3CCCO3)n2C)cc1 (centres undefined) | 0% | / | -11% | 1.3%
Cc1ccc(C)c(OCC(=O)Nc2cc(C)on2)c1 | -48% | -2 | 10% | 9.3%
CN(C(=O)C1CCCCC1)C1(C)CCS(=O)(=O)C1 (centres undefined) | / | / | 5% | 1.8%
CC(C)c1onc(C(=O)Nc2cccnc2Cl)c1[N+](=O)[O-] | -4% | -8[21.1 µM] | -1% | -0.6%
CC(Sc1ncn[nH]1)C(=O)NCc1ccccc1 (centres undefined) | 0% | / | 25% | 0.5%
O=C(c1ccccc1)N1CCN(C2c3cccc4cccc(c34)C2NS(=O)(=O)c2ccccc2)CC1 (centres undefined) | 10% | -5 | 3% | -3.7%
CCN(CC(=O)Nc1ccc(NC(C)=O)cc1)CC(=O)Nc1cccc(Cl)c1 | -3% | / | -12% | ?

Only part of the results is shown; rates above refer to the full screens.
